Bioassay records from PubChem BioAssay.
2A StopGo – lowers the luciferase signal of an FMDV 2A StopGo reporter; human cells with a luciferase reporter of 2A StopGo recoding; control for the full effect not named in the record; 1.2% of 410,000 active; Potency, µM (titrated, usually from 57.9 µM), without a hit: at the top dose signal change, negative = less light; AID 1159524; active = well fitted falling curve with a large enough effect; inconclusive = small, poorly fitted or top-dose-only effect; inactive = no such curve, though single readings can be large or run the other way; tested in HEK293T cells; note: % is set by controls: 0 for no effect and ±100 for the full control effect; nearly all actives have a fitted effect of over 45% in size; luciferase light after 4 h
MARV entry inh – Marburg virus entry inhibition; Marburg virus pseudotyped entry inhibition, cell reporter; control for the full effect not named in the record; about a third of the inactives were read at about 46 µM; Potency, µM (doses to about 37.8 µM), for the others: at the highest dose activity change, negative = inhibition, actives largely listed as inhibitors; 1.8% of 300,000 active; active = well fitted inhibition curve with a large enough effect; inconclusive = small, poorly fitted or top-dose-only effect, or effect the other way; inactive = flat fitted curve, though single readings scatter; tested in HEK293 cells; about a fifth of its hits are not listed in these tables; note: % is set by controls: 0 for no effect and ±100 for the full control effect; luciferase read-out
SARS PLP yeast – SARS-CoV PLP inhibition in yeast; S. cerevisiae expressing SARS-CoV PLpro, growth rescue; control for the full effect not named in the record; Potency, µM (titrated, usually from 32.9 µM), for the others: at the highest dose activity, positive = growth rescue; 0.19% of 330,000 active; AID 485353; active means well fitted rising curve with a large enough effect; inconclusive means small, poorly fitted or top-dose-only effect; inactive means no such curve, though single readings can be large or run the other way; note: 0% is about no effect; nearly all actives have a fitted effect of over 55% in size; growth read by luminescence after 48 h
LASV entry inh – blocks Lassa virus binding to or entry into cells; Potency, µM (highest dose often 37.9 µM), for the others: at the top dose activity change, negative = inhibition, actives largely listed as inhibitors; AID 540256; 1.2% of 300,000 active; Lassa virus pseudotype entry inhibition, cell reporter; control for the full effect not named in the record; active means well fitted inhibition curve with a large enough effect; inconclusive means small, poorly fitted or top-dose-only effect, or effect the other way; inactive means flat fitted curve, though single readings scatter; tested in HEK293 cells; note: % is set by controls: 0 for no effect and ±100 for the full control effect; nearly all actives have a fitted effect of over 50% in size; luciferase read-out
NS1 function inh – influenza NS1 inhibition; S. cerevisiae slowed by influenza A NS1, growth recovery by OD600; Potency, µM (titrated, usually from 46.1 µM), inactives show at the highest dose activity, positive = more growth; 0.4% of 270,000 active; AID 2326; active means well fitted rising curve with a large enough effect; inconclusive means small, poorly fitted or top-dose-only effect; inactive means no such curve, though single readings can be large or run the other way; note: nearly all actives have a fitted effect of over 50% in size
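A cell-based growth assay was used: compounds that relieve NS1-induced slow growth of budding yeast raise OD600. Assay medium was yeast nitrogen base with ammonium sulphate and -URA supplement, pH 6.0, with 2% galactose.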
Cruzain inh Det – cruzain (T. cruzi) inhibition with detergent; P25779; purified cruzain, Z-FR-AMC fluorescence, 0.01% Triton; Potency, µM, without a hit: max response, negative = inhibition, usual class: inhibitors; AID 1478; 0.43% of 200,000 active;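 note: plate controls were neutral wells for no effect and buffer without enzyme for full effect; nearly all actives have a fitted effect of over 40% in size; top concentration of the series not given in the record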
Target sequence (P25779 123-467 limits assumed): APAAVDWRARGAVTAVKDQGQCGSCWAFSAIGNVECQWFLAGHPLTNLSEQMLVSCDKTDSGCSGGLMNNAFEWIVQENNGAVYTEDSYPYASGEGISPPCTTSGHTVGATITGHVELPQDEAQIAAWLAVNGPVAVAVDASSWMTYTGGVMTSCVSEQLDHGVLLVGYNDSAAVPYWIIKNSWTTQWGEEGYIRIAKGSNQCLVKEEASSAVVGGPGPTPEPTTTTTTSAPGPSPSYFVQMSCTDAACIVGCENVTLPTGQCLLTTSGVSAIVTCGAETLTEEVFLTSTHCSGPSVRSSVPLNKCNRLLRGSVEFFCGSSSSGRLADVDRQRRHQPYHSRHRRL
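Read-out: AMC fluorescence (360 nm excitation, 450 nm emission), four reads over 2 min, first-to-third difference used. Conditions: cruzain 1.5 nM, Z-FR-AMC 2 uM, pH 5.5 acetate, 5 mM DTT, 0.01% Triton X-100.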
Cruzain inh noDet – inhibitors of Trypanosoma cruzi cruzain without detergent; purified cruzain, Z-FR-AMC fluorescence, no detergent; Potency, µM, without a hit: max response, negative = inhibition, most hits filed as inhibitors; 2.3% of 200,000 active; AID 1476;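 note: plate controls were enzyme without inhibitor for no effect and buffer without enzyme for full effect; nearly all actives have a fitted effect of over 40% in size; top concentration of the series not given in the record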
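Detergent-free condition (0.00005% Triton X-100) in acetate buffer pH 5.5 with DTT. 1.5 nM enzyme and compound were pre-mixed 15 min, then 2 uM Z-FR-AMC substrate added; reaction progress from fluorescence change between first and third reads (60 s).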
RE007 growth inh – less growth of the S. pombe RE007 Vpr strain | S. pombe RE007 Vpr strain, BacTiter-Glo ATP luminescence, 24 h; control for the full effect not named in the record | Potency, µM (doses to about 92.2 µM), inactives show at the highest dose activity change, negative = less growth | 0.21% of 360,000 active; active = well fitted falling curve with a large enough effect; inconclusive = small, poorly fitted or top-dose-only effect; inactive = no such curve, though single readings can be large or run the other way;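 note: % is set by controls: 0 for no effect and ±100 for the full control effect; nearly all actives have a fitted effect of over 50% in size; the assay follows cell death caused by Vpr and the record does not say whether a fall means rescue or toxicity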
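Fission yeast RE007 carrying one integrated HIV-1 vpr copy, seeded at OD 0.01 in PMG+AL medium with 23 nL pinned compound. Grown 24 h at 30 degrees; viability read by BacTiter-Glo luminescence after 5 min.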
Starred values were filed as active, the others as inactive; u = inconclusive; x = no result given; & = joins results of further samples; [ ] = dose if it differs, or a comment. Unless noted, calls come from the whole dose curve; as a rule, active = well fitted curve in the direction sought with a large enough effect; inconclusive = small, poorly fitted or top-dose-only effect, or another doubt; inactive = no such curve, though single readings can be large; an effect the other way counts as inactive or inconclusive. Potency is the fitted concentration of half-maximal effect.

Values in the order: 2A StopGo, MARV entry inh, SARS PLP yeast, LASV entry inh, NS1 function inh, Cruzain inh Det, Cruzain inh noDet, RE007 growth inh
> CCOc1ccc(CNCc2c(C(=O)O)n(Cc3ccc(C)cc3)c3cc(C)ccc23)cc1
    -5%, x, x, u, x, -13%, -9%, x
> N=c1c2c(-c3ccccc3)c(-c3ccccc3)n(Cc3ccco3)c2ncn1Cc1ccccc1
    -9%, -8%&1%, -19%, 1%, 1%, -8.4%, 3%, -11%
> CCn1c(CNC(=O)c2cccc(C)c2)nc2ccccc21
    -28%, x, -3%, x, -21%, -1.2%, u, -8%
> CCc1cccc(C)c1NC(=O)CCNC(=O)c1cccc(C)c1
    -7%, -9%[46.1 µM], -3%, 1%, -8%, x, x, 2%
> O=C(Nc1nc(-c2cccs2)cs1)c1ccc(S(=O)(=O)N2CCCC2)cc1
    10µM*, 12µM*, -5%, 21µM*, -2%, 2.5%, -17%, 8%
> Cn1ncc(N=Cc2ccccc2O)c1C(=O)Nc1ccccc1
    -2%, u, 12%, 0%, 5%, -4.8%, 30%, 4%
> CCC(NC(=O)CCc1ccccc1)c1ccccc1 (stereo not given)
    -16%, 1%[46.1 µM], 3%, 9%, 2%, x, x, 6%
> COc1ccc(Br)cc1C1Nc2cccc3cccc(c23)N1
    -7%, x, -8%, x, 29%, x, x, -10%
> Cc1nc2ccccc2c(=O)n1/N=C/c1ccc2ccccc2c1O
    u, x, 4%, x, 0%, x, x, -5%
> COc1ccc(Nc2cc(C(=O)NCCc3ccc(C)cc3)c3ccccc3n2)c(OC)c1
    -1%, u, x, 23%[46.1 µM], x, -10.0%, -5%, x
> O=C1N/C(=C/c2cccs2)C(=O)N1Cc1ccc(Br)cc1
    5%, -10%[46.1 µM], -4%, 0%, x, x, x, 27%
> COc1ccc(-c2cc3ccc(O)c(CN4CCOCC4)c3oc2=O)cc1
    28%, x, x, 5%[46.1 µM], x, -22%, u, x
> O=C(OCc1cccc([N+](=O)[O-])c1)c1ccc[nH]c1=O
    -1%, 4%[46.1 µM], 4%, 17%[46.1 µM], 7%, x, x, -5%
> O=C(c1cccs1)N1CCN(Cc2ccc3c(c2)OCO3)CC1
    -9%, -1%, -2%, 1%, 5%, 0.6%, -2%, -3%
> CC1CCCCC1NC(=O)CCCc1nc2ccccc2c(=O)[nH]1 (stereo not given)
    -4%, u, 5%, -15%, 2%, -1.3%, 2%, 2%
> Cc1ccc(-c2noc(CSc3nnnn3-c3ccccc3)n2)cc1
    x, 22%, -4%, -11%, -80%, -3.8%, 6%, 6%
> CC(NC(=S)Nc1ccc([N+](=O)[O-])cc1)c1ccncc1 (stereo not given)
    -18%, -26%[46.1 µM], -1%, -10%[46.1 µM], 7%, x, x, -11%
> CCCN1Cc2cccc(C(=O)Nc3cc(OC)cc(OC)c3)c2C1=O
    1%, 9%, -5%, 0%, 2%, -3.3%, u, 5%
> CC(=O)C1=C(O)C(=O)N(Cc2cccnc2)C1c1ccc(Cl)cc1 (stereo not given)
    -15%, 20%, 18%, 21%, 8%, -4.2%, -2%, -7%
> O=C(CN1CCCC1=O)Nc1ccccc1
    4%, u, 0%, -6%, -3%, 2.8%, 5%, 3%
> O=c1c2ccccc2nc2c3ccccc3c(NCCO)nn12
    -19%, x, 0%, x, -9%, x, x, 11%
> CC(Oc1ccc(Cl)cc1)C(=O)OCC(=O)Nc1ncc(Cl)cc1Cl (stereo not given)
    -6%, -2%, -19%, 0%, -87%, -4.8%, 1%, 0%
> COC(=O)c1c(-c2cccnc2)csc1NC(=O)c1ccc2c(c1)OCO2
    26%, 5%, 1%, u, 11%, x, x, -23%
> COc1ccc(N(CC(=O)NCc2ccccc2Cl)S(=O)(=O)c2c(C)nn(C)c2C)cc1
    16%, 0%[46.1 µM], x, -16%[46.1 µM], x, -3.7%, u, x
> CCOC(=O)Nc1ccc2c(c1)N(C(=O)CCN1CCN(CCO)CC1)c1ccccc1CC2
    x, -13%, 2%, -1%, -2%, 1.9%, 5%, -3%
> CCCCNC(=O)CS(=O)Cc1nc(-c2cccc(Cl)c2)oc1C (stereo not given)
    13%, x, 3%, x, -12%, -2.1%, 3%, 3%
> CSc1cccc(NC(=O)CN2C(=O)COc3ccc(S(=O)(=O)N4CCC(C)CC4)cc32)c1
    -17%, x, x, -15%[46.1 µM], x, -6.5%, -15%, x
> O=C(NCc1cccs1)c1nc2c(nnn2Cc2ccc(F)cc2)c(=O)[nH]1
    -17%, 20%, -13%, -24%[14.3 µM], 0%, -1.7%, -14%, 3%
> CC(=O)N/C(=C\c1ccccc1)C(=O)OCC(=O)NC1CCS(=O)(=O)C1 (stereo not given)
    -14%, -1%, 5%, 13%, x, x, x, -4%
> CC(C)(C)CC(C)(C)NC(=O)CSCC(=O)Nc1ccc2ccccc2c1
    x, u, -112%, -20%, -33%, -17%, 12%, 12%
> NC(=O)C1(N2CCCCC2)CCN(C(=O)c2ccc(-n3cnnn3)cc2)CC1
    6%, 8%, 4%, u, 3%, 4.6%, -8%, -12%
> COc1ccc(OCC(=O)N/N=C/c2cccn2-c2cccc(C(=O)O)c2)cc1
    -4%, -6%[46.1 µM], -1%, -9%, x, x, x, -11%
> Cc1ccc(OCCSc2nnc(-c3cccs3)n2C)cc1
    -13%, u, -24%, -1%, -12%, -1.5%, 2%, -4%
> O=C1CC(c2ccccc2F)c2c(c3ccccc3[nH]c2=O)O1 (stereo not given)
    -20%, 0%[46.1 µM], 2%, 8%[46.1 µM], 4%, x, x, 0%
> Cc1ccc(C(C)NC(=O)C23CC4CC(CC(C4)C2)C3)cc1 (stereo not given)
    15%, -23%[46.1 µM], 0%, u, 2%, x, x, 31%
> COc1cccc(N2CC(NC(=O)C(=O)c3c(C)[nH]c4ccccc34)CC2=O)c1 (stereo not given)
    -17%, -7%, 0%, 15%, x, x, x, 2%
> Cc1cc(=O)oc2cc(OCC(=O)OCC(=O)N3CCc4ccccc43)ccc12
    2%, u, 3%, -2%, 1%, -1.2%, 2%, 0%
> Cc1ccc(CNC(=O)c2nnc(Cc3ccc(Cl)cc3)o2)cc1
    -21%&-4%, -2%&-2%[46.1 µM], 0%, 10%[46.1 µM], 4%, 1.1%, -16%, -4%
> O=C(CCC(=O)N1CC2CCCN2c2ccccc21)NCc1ccc(F)cc1 (stereo not given)
    -23%, x, x, 0%[46.1 µM], x, -7.0%, -6%, x
> COc1ccccc1-n1nnnc1SCC(=O)Nc1ccccc1
    36%[activator], 2%[46.1 µM], -11%, 19%[46.1 µM], 1%, x, x, 14%
> COc1ccc(CCn2c(Br)nc3c2c(=O)[nH]c(=O)n3C)cc1
    -6%, u, 9%, u, -2%, 1.9%, 15%, 4%
> COCCCNC(=O)C1CCN(c2nnc(-n3cccc3CNc3ccc(C)cc3)s2)CC1
    -3%, 0%[46.1 µM], x, x, x, -4.2%, u, x
> Cc1cc(-c2ccc(S(=O)(=O)N3CCN(c4ccc(F)cc4)CC3)s2)on1
    -2%, -15%[46.1 µM], 0%, -26%[46.1 µM], -12%, x, x, 8%
> CCOC(=O)c1ccc(S(=O)(=O)N2CCN(C(=O)c3nn(C)c(=O)c4ccccc34)CC2)cc1
    -27%, -7%, -3%, 0%, x, x, x, -12%
> O=C(O)CC(NC(=O)Cc1ccc(Cl)cc1)c1ccco1 (stereo not given)
    -7%, 11%[46.1 µM], 3%, -6%[46.1 µM], x, x, x, 3%
> CC(C)Oc1cccc(-c2cc(C(=O)N3CCN(c4ncccn4)CC3)c3ccccc3n2)c1
    x, x, 2%, x, 2%, -5.4%, u, x
> COc1ccccc1NC(=O)c1cnn(-c2ccccc2)c1-n1cccc1
    -10%, 21%[46.1 µM], x, u, x, -2.3%, -3%, x
> Cc1ccc(S(=O)(=O)Nc2ccc(S(=O)(=O)N3CCCC3)cc2)cc1
    50%[activator], -24%, 3%, u, 1%, -1.8%, 0%, -7%
> CCC1CCCCN1C(=O)COC(=O)c1ccc(S(=O)(=O)N2CCOCC2)cc1 (stereo not given)
    0%, 7%&7%, 4%, 18%, -3%, 6.9%, 7%, 4%
> COC(=O)c1ccc(-c2nc3cc(Cl)c(N)cc3s2)cc1
    10µM*, 0.5µM*, 4%, u, 4%, 5.9%, 7.9µM*, -10%
> Cc1ccc(-c2cc(C(=O)OC3CCOC3=O)c3ccccc3n2)c(C)c1 (stereo not given)
    2%, 2%, -3%, 7%, -9%, x, x, 12%
> COc1ccccc1N1CCN(C(c2cccs2)C(C)NC(=O)c2ccncc2)CC1 (stereo not given)
    u, x, 0%, x, -11%, x, x, -2%
> COc1ccc2c(Sc3ccc(C)cc3)c(C(=O)NCc3ccc(F)cc3)[nH]c2c1
    0%, u, x, -12%[46.1 µM], x, -7.3%, 6%, x
> CC(C)CCNC(=O)NC(=O)COC(=O)/C=C/c1cccc([N+](=O)[O-])c1
    -4%, u, 2%, 3%, -9%, x, x, -6%
> c1ccc2[nH]c(SCc3cscn3)nc2c1
    54%[activator], u, -2%, u, -10%, 3.2%, -17%, -1%
> Cc1cc(N2CCN(C)CC2)nc2ccc(NC(=O)CCC(=O)NCCC3=CCCCC3)cc12
    -1%, u, x, u, 0%, x, x, -9%
> CN1C(=S)NC(C)(C)CC1(C)c1ccc(O)cc1O (stereo not given)
    u, 5%, 5%, 15%, u, -1.2%, 0%, 4%
> Cc1ccc(N2C(N)=C(C#N)C(c3cccnc3)C3=C2CC(C)(C)CC3=O)cc1 (stereo not given)
    u, u, -1%, u, 5%, 0.5%, -8%, 22%
> COc1ccc(CN(C)CC(O)COC(c2ccccc2)c2ccccc2)c(OC)c1OC (stereo not given)
    u, u, 6%, u, -15%, x, x, 1%
> Cc1ccc(C(=O)OCc2nnc(-c3ccccc3)o2)s1
    7%, 0%[46.1 µM], 1%, 15%, x, x, x, -28%
